KCNQ2 inh: KCNQ2 channel blockers in CHO-K1 cells – cell-based, FluxOR thallium flux, B-score, primary screen (AID 2156); O88943; 20 min; hits give low values; only compounds with negative scores are shown here; some inactives read as strong as hits; B-score at 10 µM; 310,000 tested, 1.1% active;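 active = fluorescence ratio B-score at most minus 3 library SDs, with starting brightness B-score within 2 library SDs, cut at about -5.5 in these data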
Target sequence (O88943 whole entry, looked up): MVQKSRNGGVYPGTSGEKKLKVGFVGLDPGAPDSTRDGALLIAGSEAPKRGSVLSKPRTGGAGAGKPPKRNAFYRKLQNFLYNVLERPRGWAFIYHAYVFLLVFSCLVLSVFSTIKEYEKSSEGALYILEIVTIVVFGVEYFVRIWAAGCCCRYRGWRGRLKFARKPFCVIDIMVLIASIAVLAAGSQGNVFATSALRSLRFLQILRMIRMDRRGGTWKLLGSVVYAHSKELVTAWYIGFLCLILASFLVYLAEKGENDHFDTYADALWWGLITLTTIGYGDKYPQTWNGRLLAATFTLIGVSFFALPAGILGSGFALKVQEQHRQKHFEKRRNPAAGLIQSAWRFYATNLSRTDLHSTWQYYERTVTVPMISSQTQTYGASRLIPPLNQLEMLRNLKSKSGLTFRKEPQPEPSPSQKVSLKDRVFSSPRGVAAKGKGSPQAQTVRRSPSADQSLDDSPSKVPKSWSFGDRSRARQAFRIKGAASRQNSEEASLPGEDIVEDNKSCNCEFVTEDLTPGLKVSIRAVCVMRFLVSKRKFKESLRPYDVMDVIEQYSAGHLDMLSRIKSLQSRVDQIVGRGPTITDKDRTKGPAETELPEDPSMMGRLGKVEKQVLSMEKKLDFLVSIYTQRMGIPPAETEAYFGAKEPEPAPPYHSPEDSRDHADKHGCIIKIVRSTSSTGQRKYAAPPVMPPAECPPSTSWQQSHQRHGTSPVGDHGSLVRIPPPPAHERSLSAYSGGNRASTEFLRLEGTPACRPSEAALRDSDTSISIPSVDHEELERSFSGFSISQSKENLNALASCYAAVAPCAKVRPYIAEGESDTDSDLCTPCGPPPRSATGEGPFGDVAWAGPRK
KCNQ2 inh baseline: also measured in KCNQ2 inh; calls as there; B-score; measured here: initial fluorescence intensity artifact check;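 brightness before thallium and not channel activity; 0 = typical well and far values either way flag optical interference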
* marks the source's active call; other numbers are inactive results; i = inactive. Only part of the results is shown. The share of hits here may be higher or lower than overall.

KCNQ2 inh	KCNQ2 inh baseline	SMILES
i	1	Cc1onc(-c2ccccc2Cl)c1C(=O)N1CC(C)OC(C)C1 (configuration not stated)
i	0.42	CCCn1c(SCc2ccc(C(=O)OC)o2)nc2ccccc2c1=O
i	0.46	COC(=O)COC(=O)c1ccc(Oc2nc(OC)nc(N(C)C)n2)cc1
i	-0.37	Cc1cc(C)cc(N(C(=O)c2ccccn2)C(C(=O)NC2CCCCC2)c2ccncc2)c1 (configuration not stated)
i	0.18	CCN(CC)C(=O)c1sc2[nH]c(=S)n(-c3ccccc3)c(=O)c2c1C
i	-0.47	COc1ccc(OC)c(Nc2ncnc3sccc23)c1
i	0.67	Cc1cc(C(=O)Nc2c(C)cccc2C)n(-c2ccccc2)n1
i	1.4	CC1CCCN(C(=O)CSCC(=O)Nc2nc(-c3cccs3)cs2)C1 (configuration not stated)
i	-2.4	O=C(NCc1ccc(F)cc1)C1CCCN(S(=O)(=O)c2cccc3nsnc23)C1 (configuration not stated)
i	-2.6	CCCCNC(=S)N(Cc1c(C)noc1C)c1ccccc1
i	0.01	CNC(=O)N1CCC(C(=O)c2c(C)c(C)c(C)c(C)c2C)CC1
i	0.89	CCOc1ccc(C(CC(=O)O)NC(=O)COc2ccc3ccccc3c2)cc1OC (configuration not stated)
i	-0.08	O=C(Nc1cccnc1)c1cc(-c2ccc(Cl)c(Cl)c2)on1
i	-0.41	CCOc1ccc(NC(=O)C2CSC(c3ccncc3)=N2)cc1 (configuration not stated)
-7*	-2.7*	O=C(Nc1ccc(C(O)(C(F)(F)F)C(F)(F)F)cc1)c1ccc(Cl)c([N+](=O)[O-])c1
i	2.9	Nc1ccc(OCc2ccco2)cc1
i	33	CCN(CC)c1ccc2c(c1)OC(N)=C(C#N)C2c1cccnc1 (configuration not stated)
-7.2*	0.84*	CCOc1ccc(Cc2c(Cl)nc(SC)nc2N(C)C)cc1
i	1.3	COc1cc(-c2nc3n(n2)C(c2cccc(OC)c2OC)C2=C(CCCC2=O)N3)cc(OC)c1OC (configuration not stated)
i	0.21	Cc1ccccc1NC(=O)CC1(c2ccc(N(C)C)cc2)C(=O)c2ccccc2C1=O
i	2.7	O=C(CCN1C(=O)/C(=C\c2ccccc2Cl)SC1=S)Nc1cccnc1
i	0.86	CCC(=O)Nc1nnc(S(=O)(=O)N2CCCc3ccccc32)s1
i	0.02	Cc1nnc(NC(=O)c2nn(CC(C)C)c(=O)c3ccccc23)s1
i	-0.02	CNS(=O)(=O)c1ccc(N2CCCC2=O)c([N+](=O)[O-])c1
i	1.1	CC(=O)c1cccc(N(CC(=O)NC2CCCCC2)C(=O)Cn2nnc(-c3ccccc3)n2)c1
i	-0.32	COC(=O)C1CCN(c2ccc(C(N)=O)cc2[N+](=O)[O-])CC1
i	0.19	O=C(N/N=C/c1cccc(O)c1)c1ccc(COc2cccc3cccnc23)cc1
i	0.02	CC(=O)Nc1ccccc1C(=O)C(=O)Nc1ccc(C(=O)NCC2CCCO2)cc1 (configuration not stated)
i	0.04	CCc1[nH]c(=O)c(C#N)c2c1CSC(C)(C)C2
i	0.29	COc1ccc(N2CCN(C(=O)CN(c3cccc(OC)c3)S(=O)(=O)c3ccccc3)CC2)cc1

As a working copy, part of the list above:
KCNQ2 inh	KCNQ2 inh baseline	SMILES
i	0.04	CCc1[nH]c(=O)c(C#N)c2c1CSC(C)(C)C2
i	0.29	COc1ccc(N2CCN(C(=O)CN(c3cccc(OC)c3)S(=O)(=O)c3ccccc3)CC2)cc1

7 entries from above, ordered by number of heavy atoms, smallest number first.
KCNQ2 inh	KCNQ2 inh baseline	SMILES
i	0.04	CCc1[nH]c(=O)c(C#N)c2c1CSC(C)(C)C2
i	-0.02	CNS(=O)(=O)c1ccc(N2CCCC2=O)c([N+](=O)[O-])c1
-7.2*	0.84*	CCOc1ccc(Cc2c(Cl)nc(SC)nc2N(C)C)cc1
i	0.67	Cc1cc(C(=O)Nc2c(C)cccc2C)n(-c2ccccc2)n1
i	0.42	CCCn1c(SCc2ccc(C(=O)OC)o2)nc2ccccc2c1=O
i	0.46	COC(=O)COC(=O)c1ccc(Oc2nc(OC)nc(N(C)C)n2)cc1
i	-2.4	O=C(NCc1ccc(F)cc1)C1CCCN(S(=O)(=O)c2cccc3nsnc23)C1 (configuration not stated)

Further results:
KCNQ2 inh	KCNQ2 inh baseline	SMILES
i	-0.31	CCc1cccc(CC)c1NC(=O)CN1CCN(S(=O)(=O)c2ccccc2)CC1
i	-0.35	COc1ccc(N2C(=O)CCC(C(=O)O)C2c2ccc(OC)c(OC)c2)cc1 (configuration not stated)
i	-1.1	CCOc1cc(/C=C(/C#N)c2ccc(F)cc2)ccc1OCc1ccc(C(=O)O)o1
-6.3*	-1.6*	Cc1cc(C)cc(NC(=O)C2(c3ccccc3)CC2(Cl)Cl)c1 (configuration not stated)
i	1.4	CCCn1c(SCC(=O)/C(C#N)=C(\C)N)n[nH]c1=O
i	-0.59	COc1ccccc1OCC(=O)N1CCNC1=O
i	0.59	O=C(O)c1ccc(NC(CSCc2cccc(F)c2)C(=O)O)c([N+](=O)[O-])c1 (configuration not stated)
i	-0.27	CC1CN(CN2C(=O)c3ccccc3C2=O)CC(C)O1 (configuration not stated)
i	-1.3	O=C(CS(=O)(=O)c1ccccc1)NCc1ccco1
i	-0.05	CSCCC(NC(=O)c1cncc(Br)c1)C(=O)O (configuration not stated)
i	-2.2	CCOC(=O)C1CCCN(C(=O)c2cc(-c3ccccc3)on2)C1 (configuration not stated)
i	-0.57	c1ccc(-c2onc(-c3ccco3)c2-c2ccc3[nH]ccc3c2)cc1
i	-0.77	CN(CCC#N)C(=O)COC(=O)c1ccccc1C(=O)c1ccc(Cl)c([N+](=O)[O-])c1
i	-0.61	Cc1cc(C)n(-c2c(F)c(F)c(CN3CCOCC3)c(F)c2F)n1
-7.5*	1.5*	Cc1cc(OCC(=O)N2CCc3ccccc3C2)c2c(-c3ccccc3)cc(=O)oc2c1
i	0.76	Cn1c(Sc2ccc(C(=O)O)cc2[N+](=O)[O-])nnc1-c1ccccc1
i	0.7	Cc1ccc(N(C(=O)c2csnn2)C(C(=O)NC2CCCC2)c2cccnc2)c(C)c1 (configuration not stated)
i	-0.05	COC(=O)c1ccc(C2/C(=C(\O)c3ccc4c(c3)OCCO4)C(=O)C(=O)N2CCCN(C)C)cc1 (configuration not stated)
i	-1.8	CCCN(CC1CC1)C(=O)CCc1nnc(C(OC)c2ccccc2)o1 (configuration not stated)
i	-1.1	CC(c1ccccc1)n1c(Cn2ncc3ccccc3c2=O)n[nH]c1=S (configuration not stated)
i	0.67	O=C(O)CCC(=O)N1CCc2cc(S(=O)(=O)NC3CCCc4ccccc43)ccc21 (configuration not stated)
i	-0.18	Cc1ccc(C)c(OCCn2cc(/C=C(\C#N)C(=O)NCC3CCCO3)c3ccccc32)c1 (configuration not stated)
i	-0.01	COC(=O)c1ccccc1NC(=O)c1cncc(Br)c1
i	0.09	COc1ccc(/C=C(/NC(=O)c2ccccc2)C(=O)N/N=C/c2ccncc2)cc1
i	-2.2	Cc1ccc(CNC(=O)c2ccccc2NC(=O)CN2CCN(C)CC2)cc1
i	1.4	Cc1nccnc1Sc1ccccc1
i	0.83	CNC1=C(N(C(C)=O)c2ccc(Br)cc2)C(=O)c2ccccc2C1=O
i	1.1	O=C(CN1C(=O)S/C(=C\c2cccs2)C1=O)Nc1ccc(C(=O)O)c(O)c1
i	-0.23	O=C(OCc1nc2ccccc2s1)c1ccc(Br)s1
i	3.9	CCCCN1C(=O)/C(=C2/Sc3ccc(Cl)cc3N2CC)SC1=S
i	1.6	COc1ccccc1CC(=O)NCc1nn(-c2ccccc2)nc1C
i	0.54	CC(=O)C1=C(O)C(=O)N(c2ccc(O)cc2)C1c1cccc([N+](=O)[O-])c1 (configuration not stated)
i	2.4	Clc1ccc(C2=CSC3=NCCN23)cc1Cl
i	-0.94	O=C(COc1ccc(Br)cc1Br)NC(=S)N1CCCc2ccccc21
i	0.18	Cc1ccc(-n2nnnc2-c2cccs2)cc1[N+](=O)[O-]
i	-1.6	Cc1cc(C)c(S(=O)(=O)NCC2CCC(C(=O)NCc3ccccn3)CC2)c(C)c1 (configuration not stated)
i	-0.65	CC(C)c1ccc(-c2nn(-c3ccccc3)cc2C(=O)NCC2CCCO2)cc1 (configuration not stated)
i	-1.5	O=C(CCCCCN1C(=O)c2ccccc2C1=O)Nc1ccccc1F
i	0.73	CC1=NNC(=O)C1CC(=O)N/N=C/c1cccs1 (configuration not stated)
i	-0.62	N#Cc1ccc(CSc2ncnc3c2cnn3Cc2ccccc2)cc1
i	0.53	CN(CCC#N)S(=O)(=O)c1ccc2c(c1)c(=O)n(C)c(=O)n2C
i	1.9	NS(=O)(=O)CCCc1ccccc1
i	0.66	Cc1cc(C)nc(SCc2cc(=O)c(OC(=O)c3ccc(S(=O)(=O)N(C)C)cc3)co2)n1
i	-1.1	Fc1ccc(-c2nc3ccccc3c3nc4ccccc4n23)cc1
-9.3*	1.3*	CC1CCN(c2ccccc2NC(=O)c2ccc(F)cc2)CC1
i	-0.16	Cc1nc(NC(N)=S)sc1C(=O)Nc1ccccc1
i	0.65	CNc1nc(-c2ccc(OC)cc2)c(-c2ccc(OC)cc2)s1
i	2.2	Cc1cc(=O)n2c(n1)NC(=NCc1ccccc1)NC2c1ccccc1 (configuration not stated)
i	-1.4	CCN(CC)S(=O)(=O)c1ccc(C(C)NC(=O)Cc2c[nH]c3ccccc23)cc1 (configuration not stated)
i	-0.64	CCCCn1c(=O)nc2n(-c3ccccc3)c3ccccc3cc-2c1=O
i	-0.69	COc1ccc(CN(C(=O)c2ccc(C)cc2)c2cccc(N)c2)cc1
i	-0.13	CCCC(=O)Nc1nnc(SCC(=O)Nc2nc(C)cs2)s1
i	-0.82	Cc1ccc(-c2noc(CSc3nnc(-c4ccccc4)n3C)n2)cc1
i	0.2	CC(C)Cc1ccc(CN2CCCC(NC(=O)CCN3CCCO3)C2)cc1 (configuration not stated)
i	-0.96	Cc1ccc(NC(=O)N2Cc3ccccc3CC2C(=O)NC(C)(C)C)cc1 (configuration not stated)
i	-0.62	COc1ccc(S(N)(=O)=O)cc1C(=O)N1CCCC1
i	0.62	O=C(c1ccc(Cl)cc1Cl)N1CCc2ccccc21
i	-0.74	C[C@@H](CC#N)CN1CC[C@H](C(C)(C)C)CCC1=O
i	0.63	Cn1c(=O)c(=O)n(C)c2cc(S(=O)(=O)N3CCN(c4ccccc4F)CC3)ccc21
i	-0.93	COc1ccc(/C=N/NC(=O)CNC(=O)/C=C/c2ccccc2OC)cc1

Some of the entries above in another layout.
Fields – KCNQ2 inh	KCNQ2 inh baseline
Cn1c(=O)c(=O)n(C)c2cc(S(=O)(=O)N3CCN(c4ccccc4F)CC3)ccc21
 : i	0.63
CCN(CC)S(=O)(=O)c1ccc(C(C)NC(=O)Cc2c[nH]c3ccccc23)cc1 (configuration not stated)
 : i	-1.4
Clc1ccc(C2=CSC3=NCCN23)cc1Cl
 : i	2.4
CC(=O)C1=C(O)C(=O)N(c2ccc(O)cc2)C1c1cccc([N+](=O)[O-])c1 (configuration not stated)
 : i	0.54

Further compounds.
KCNQ2 inh	KCNQ2 inh baseline	SMILES
i	0.05	CCOC(=O)c1cc2c(ccn2C)n1CC(=O)N(Cc1ccccc1)c1ccc(F)cc1
i	1.4	CC(=O)OC(C(=O)NC1CCCCC1)c1ccc(C#N)cc1 (configuration not stated)
i	-1.1	Cc1ccccc1C1C(C#N)=C2N=C(N)c3ccccc3N2C2=C1C(=O)CCC2 (configuration not stated)
i	0.45	CC1(C)Cc2c(sc(NC(=O)c3ccccc3)c2C(=O)O)CO1
i	-0.11	Cc1cccc(C(=O)NNC(=O)c2cccc([N+](=O)[O-])c2)c1
i	0.76	O=C(Cn1c2ccccc2c2nc3n(c(=O)c21)CCCS3)Nc1ccccc1
i	0.71	COc1ccc(NC(=O)C(c2ccccc2)N(C)C(=O)c2cnccn2)cc1 (configuration not stated)
i	1.7	CCN1CCN(c2nc3c(C)cccn3c(=O)c2/C=C(\C#N)S(=O)(=O)c2ccccc2)CC1
i	-0.38	c1ccc2[nH]c(CSc3nnc(-c4ccncc4)o3)nc2c1
i	0.52	Cc1cc(C)nc(/N=C(\N)Nc2ccc([N+](=O)[O-])cc2)n1
i	-1	O=C(CCN1C(=O)[C@@H]2Cc3ccccc3CN2C1=O)NCc1ccccc1Cl
i	-0.45	CCn1c(SCC(=O)NCc2ccc3c(c2)OCO3)nnc1-c1ccco1
i	0.95	O=C(O)c1ccc(N2C(=O)CSC2=S)cc1
i	0.94	CC(NC(=O)c1noc2c1CCCCC2)c1ccccc1 (configuration not stated)
i	-0.24	O=C(NCc1ccc(Cl)cc1)C1CCC(=O)N(C2CCCCCC2)C1 (configuration not stated)
-6.6*	-2.6*	O=C(Nc1ccc(N2CCOCC2)cc1)Nc1ccc(Cl)c(Cl)c1
i	0.88	COc1cccc(N2CCN(C(=O)c3ccc(=O)oc3)CC2C)c1 (configuration not stated)
i	0.05	CC(=O)c1cc(-c2ccccc2)n(CCC(=O)NC(C)(C)C)c1C
i	1.5	CCNC(=O)Nc1nc2ccccc2s1
i	0.7	CC1(C)CC2CC(C)(CN2C(=O)NC(=O)c2ccccc2)C1 (configuration not stated)
i	0.57	COc1ccc(NC(=O)C2CCN(C(=O)C3CC(=O)N(c4ccc(C)cc4)C3)CC2)cc1 (configuration not stated)

Assay outcomes (PubChem BioAssay)
